Screening data: PubChem, National Center for Advancing Translational Sciences (NCATS)
VDR inh: Inhibitors of the vitamin D receptor (VDR): qHTS; VDR-SRC2-3 peptide fluorescence polarization, 2 h; Potency, µM, without a hit: max response, negative = inhibition, most hits filed as inhibitors; 400,000 compounds, 0.93% hits; active = well fitted inhibition curve with a large enough effect; inconclusive = small, poorly fitted or top-dose-only effect, or another doubt; inactive = no such curve, though single readings can be large or run the other way; note: series mostly up to about 120 µM
Target sequence (P11473 whole entry, looked up): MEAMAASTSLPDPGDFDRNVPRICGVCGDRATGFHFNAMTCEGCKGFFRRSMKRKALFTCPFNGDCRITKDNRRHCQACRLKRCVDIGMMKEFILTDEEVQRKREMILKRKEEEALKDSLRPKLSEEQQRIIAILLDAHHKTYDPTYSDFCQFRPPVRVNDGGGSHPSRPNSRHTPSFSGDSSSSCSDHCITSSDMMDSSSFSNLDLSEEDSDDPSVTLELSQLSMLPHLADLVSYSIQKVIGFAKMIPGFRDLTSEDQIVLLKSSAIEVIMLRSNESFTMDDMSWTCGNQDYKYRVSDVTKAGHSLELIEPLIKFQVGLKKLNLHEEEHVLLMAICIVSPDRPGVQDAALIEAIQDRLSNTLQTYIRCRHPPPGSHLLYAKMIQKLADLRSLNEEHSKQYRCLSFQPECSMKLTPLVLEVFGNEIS
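Reagent solutions, kept cold and dark, are dispensed first; compounds are then pinned in at 23 nl, plates briefly spun, and incubated 2 h at ambient temperature. Inhibition of VDR–SRC2-3 peptide binding is read by fluorescence polarization.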
* marks the source's active call; other numbers are inactive results; ? = inconclusive. % is set by controls: 0 for no effect and ±100 for the full control effect; potency is the fitted concentration of half-maximal effect. An excerpt (hit frequency here may not be typical).

no. | canonical_smiles | VDR inh
1 | CCc1ccccc1NC(=O)c1ccc(S(=O)(=O)N2CCCC2)cc1 | 1%
2 | O=C(N/N=C/c1ccccn1)c1cc(Br)ccc1O | 4%
3 | CCCCCn1c(=NC(=O)c2cccnc2)c(C#N)cc2c(=O)n3cccc(C)c3nc21 | -10%
4 | O=C1C(Cl)=C(NCCCN2CCOCC2)C(=O)N1CCc1ccccc1 | 2%
5 | Cc1ccc(C(=O)c2c(N)c(C(=O)Nc3ccccc3Cl)c3ccccn23)cc1 | 15%
6 | Cc1ccc(S(=O)(=O)N2CCN(C(=O)COC(=O)c3ccc(Cl)nc3)CC2)c(C)c1 | -9%
7 | CCN(CC)c1ccc(/C=N/n2c(C)cc(C)cc2=O)cc1 | 16%
8 | CCCCC/C=C\C/C=C\CCCCCCCC(=O)NC(C)C(=O)O (configuration not stated) | -9%
9 | COc1ccc(-c2nc(CCNC(=O)c3ccco3)cs2)cc1OC | -7%
10 | CCOC(=O)CN1C(=O)S/C(=C/c2ccc(OCc3ccc(C(=O)O)cc3)cc2)C1=O | 2%
11 | CCOc1ccc(CCNC(=O)c2c(C)nn(-c3ccccc3)c2Cl)cc1OCC | -7%
12 | COc1ccccc1/C=N/NC(=O)c1cccc(NC(=O)c2ccccc2C)c1 | 13%
13 | COc1ccc(CNC(=O)C[C@H]2C[C@H](C(=O)N(C(C)C)C(C)C)[C@@]3(C)c4[nH]c5cc(-c6ccco6)ccc5c4CCN3C2=O)cc1OC | -23%
14 | Cc1ccc(CNCc2cccnc2)cc1 | -8%
15 | C=CCN(CC=C)CCOc1ccccc1F | -14%
16 | CCn1c(=O)c2cc(C(=O)N(CC(C)C)CC(C)C)sc2c2ccccc21 | -15%
17 | CCOC(=O)c1csc(N/N=C2\CCCc3ccccc32)n1 | 2%
18 | Oc1ccc(C(=S)N2CCCCCC2)cc1 | 7%
19 | Cc1ccc(S(=O)(=O)Cn2nnnc2C(c2ccc(F)cc2)N2CCCCC2)cc1 (configuration not stated) | 0%
20 | O=C(NCC1(O)CCCCC1)C1CCC(=O)N(CCc2ccccc2)C1 (configuration not stated) | -5%
21 | COCCNC(=O)/C(C#N)=C/c1cn(CC(=O)NCc2ccco2)c2ccccc12 | -19%
22 | O=C(COC(=O)c1cc(=O)[nH]c(=O)[nH]1)Nc1cccc(S(=O)(=O)N2CCCCC2)c1 | 2%
23 | CN(C)S(=O)(=O)c1ccc(C(=O)OCC2CC2(Cl)Cl)cc1 (configuration not stated) | 8%
24 | CCOc1ccccc1NC(=O)C1CCN(S(=O)(=O)c2cc(Br)cc3c2N(C(C)=O)CC3)CC1 | -3%
25 | O=C(CCNC(=O)C1CCN(S(=O)(=O)c2ccccc2)CC1)NCCc1ccc(Cl)cc1 | -6%
26 | CC(C)c1cccc(C(C)C)c1NC(=O)CN(C)C1CCS(=O)(=O)C1 (configuration not stated) | -11%
27 | O=C(NC1CC(=O)N(c2ccc3c(c2)OCCO3)C1)N1CCCCC1 (configuration not stated) | -14%
28 | O=C(OCC#CCSc1nnc(-c2ccc(Br)cc2)o1)c1ccco1 | 1%
29 | CC(C)n1cnc2c(NCc3ccccc3)cc(OCC3CCN(C)CC3)cc21 | 50µM*
30 | COc1ccc(CCNC(=O)c2ccc(CSCc3ccc(C)cc3)o2)cc1OC | 10%

The last 5 entries of the part before are carried over, then new ones follow.
no. | canonical_smiles | VDR inh
26 | CC(C)c1cccc(C(C)C)c1NC(=O)CN(C)C1CCS(=O)(=O)C1 (configuration not stated) | -11%
27 | O=C(NC1CC(=O)N(c2ccc3c(c2)OCCO3)C1)N1CCCCC1 (configuration not stated) | -14%
28 | O=C(OCC#CCSc1nnc(-c2ccc(Br)cc2)o1)c1ccco1 | 1%
29 | CC(C)n1cnc2c(NCc3ccccc3)cc(OCC3CCN(C)CC3)cc21 | 50µM*
30 | COc1ccc(CCNC(=O)c2ccc(CSCc3ccc(C)cc3)o2)cc1OC | 10%
31 | CCS(=O)(=O)Nc1c(C(=O)O)[nH]c2ccccc12 | -1%
32 | CC(C)(C)CC(=O)Nc1ccc(S(=O)(=O)N2CCCC2)cc1 | -1%
33 | COc1cccc(C(=O)Nc2ccccc2F)c1 | -3%
34 | COc1ccc(Cl)cc1CN1CCOCC1 | 5%
35 | O=C(C[C@H]1C/C=C\CC[C@H](Cc2ccc(F)cc2)C(=O)OCCNC1=O)NCCO | -8%
36 | COC(=O)C1=C(N)Oc2cc(C)[nH]c(=O)c2C1c1ccncc1 (configuration not stated) | 5%
37 | CCN1C(=O)C(O)(CC(=O)c2cccc(-n3cccc3)c2)c2ccccc21 (configuration not stated) | 23%
38 | Cc1cc(C)c2nc(N3CCC(C(=O)NCc4ccccn4)CC3)sc2c1 | -15%
39 | CCOC(=O)c1ccccc1NC(=O)CC(C)CC(=O)O (configuration not stated) | 16%
40 | Cn1cccc1Cc1nnc(SCC(=O)Nc2ccc3c(c2)OCO3)n1-c1ccc(F)cc1 | -6%
41 | Cc1ccc(S(=O)(=O)Nc2cccc(Cl)c2)cc1NC(=O)C1CC1 | -15%
42 | O=C(CN(CC1CCCO1)C(=O)CNS(=O)(=O)c1ccc(Cl)cc1)NCc1ccccc1 (configuration not stated) | -12%
43 | CCc1ccc(OCc2nc(-c3ccc(-n4cccc4)cc3)no2)cc1 | 23%
44 | Cc1ccc(NC(=O)COC(=O)c2ccccc2Nc2ccccc2)cc1 | 7%
45 | COc1ccc(N(C(=O)Cn2nnc(-c3ccc(C)o3)n2)C(C(=O)NC2CCCC2)c2ccncc2)cc1 (configuration not stated) | -2%
46 | O=C(Oc1ccccc1)N1CCC2(CC1)CCN(c1ccccc1)CC2 | 5%
47 | Cc1ccc(C(=O)OCC(=O)NCC2COc3ccccc3O2)cc1 (configuration not stated) | 7%
48 | Clc1ccc(OCCN2CCCCC2)c(Cl)c1 | 16%
49 | CN(Cc1ccc(OCC(O)CN2CCCCC2)cc1)Cc1ccnc2ccccc12 (configuration not stated) | 9%
50 | COCCNc1oc(-c2ccco2)nc1S(=O)(=O)c1ccccc1 | -21%
51 | O=C(NC(Cc1ccccc1)C(=O)NC1CC1)OCc1ccccc1 (configuration not stated) | 6%
52 | O=S(=O)(c1ccc(Cl)cc1)N1CCC2(CC1)OCCO2 | -3%
53 | Cc1ccc(-n2nnnc2SCC(=O)NNC(=O)c2ccc([N+](=O)[O-])cc2)cc1 | 11%
54 | COc1ccc(N(CC(=O)N2CCCCC2)S(=O)(=O)c2ccccc2)c(OC)c1 | -12%
55 | CC(C)c1ccc(-c2nc(N3CCOCC3)[nH]c(=O)c2C#N)cc1 | 6%
56 | CCCN1C(=O)/C(=C/c2ccc(C)s2)NC1=S | -3%
57 | Cn1c(=NC(=O)c2cccc([N+](=O)[O-])c2)sc2ccccc21 | -7%
58 | O=C(CCSCc1ccccc1F)NCc1ccc(F)cc1 | 15%
59 | Cc1cccc(NC(=O)CN2NS(=O)(=O)c3ccccc3C2=O)c1 | 0%
60 | COc1cccc(-c2cc(NCc3ccccc3)ncn2)c1 | -2%

3 structures from above, ordered by SMILES length, ascending:
no. | canonical_smiles | VDR inh
31 | CCS(=O)(=O)Nc1c(C(=O)O)[nH]c2ccccc12 | -1%
51 | O=C(NC(Cc1ccccc1)C(=O)NC1CC1)OCc1ccccc1 (configuration not stated) | 6%
46 | O=C(Oc1ccccc1)N1CCC2(CC1)CCN(c1ccccc1)CC2 | 5%

Printed as active in VDR inh, of those listed so far:
no. | canonical_smiles | VDR inh
29 | CC(C)n1cnc2c(NCc3ccccc3)cc(OCC3CCN(C)CC3)cc21 | 50µM*

The results go on:
no. | canonical_smiles | VDR inh
61 | CN(C)S(=O)(=O)c1ccc(N2CCCC2)c(C(=O)NNC(=O)c2ccc(F)cc2)c1 | -12%
62 | CC(C)N(Cc1nc(-c2ccccc2)no1)C(=O)COc1ccccc1 | -14%
63 | CN(C)Cc1c(O)c(Cl)cc2c3c(c(=O)oc12)CCCC3 | -10%
64 | O=[n+]1c2c(n([O-])c3cc(Cl)ccc31)CCCC2 | 6%
65 | CCOc1ccc(NC(=O)CC2C(=O)N(c3ccc(OC)c(Cl)c3)C(=S)N2C2CC2)cc1 (configuration not stated) | -11%
66 | COc1cc2c(cc1OC)CC(=O)NC=C2 | -15%
67 | COC(=O)c1cc(CNC(=O)c2cccc(Cl)c2)ccc1OC | 6%
68 | CC(C)=CC(=O)OCC(=O)Nc1cccc([N+](=O)[O-])c1 | -8%
69 | Cc1cc(NC(=O)CN2C(=O)/C(=C/c3cccc(Br)c3)SC2=S)no1 | 3%
70 | CCOC(=O)c1cnc(Nc2nc3ccccc3o2)nc1CSc1nnc(C)s1 | 11%
71 | CC12CN3CC(C)(CN(C1)C3c1ccc(Br)cc1O)C2 (configuration not stated) | -19%
72 | O=P(COCCOCP(=O)(c1ccccc1)c1ccccc1)(c1ccccc1)c1ccccc1 | -4%
73 | COC(=O)c1sccc1NC(=O)Nc1cccc(OC)c1 | 28%
74 | COc1cccc(CN2CCC(Oc3ccc(C(=O)NCc4ccccn4)cc3)CC2)c1 | 3%
75 | O=C(Nc1ccc2c(c1)OCO2)C1CCN(Cc2cc3c(cc2O)OCO3)CC1 | -18%
76 | O=C(O)C1C2C=CC(C2)C1C(=O)Nc1nccs1 (configuration not stated) | 3%
77 | CNC(=O)c1ccc(NC(=O)COc2ccc(-c3nn(C)c(=O)c4ccccc34)cc2)cc1 | -5%
78 | COc1ccc(-c2onc(C)c2C)cc1S(=O)(=O)NCC1CCN(Cc2cccc(F)c2)CC1 | -1%
79 | CCCCCOc1ccc(N2C(=O)CC(N(O)c3ccccc3)C2=O)cc1 (configuration not stated) | 6%
80 | CNC(=O)N(O)C1N(/N=C/c2cccs2)C(=S)SC1(C)C (configuration not stated) | 6%
81 | CCOC(=O)c1c(NC(=O)CC2Nc3ccccc3NC2=O)sc(C)c1C (configuration not stated) | -12%
82 | O=C(O)c1ccccc1CSC1=NCCS1 | -23%
83 | Nc1nc(=S)c2ncn(C3OC(CO)CC3O)c2[nH]1 (configuration not stated) | -11%
84 | CCc1cc2ccccc2nc1Cl | 15%
85 | C[C@H](N)C(=O)N1CCC(C(=O)N[C@@H](Cc2ccccc2)C(=O)Nc2ccc(F)cc2)CC1 | ?
86 | COc1cccc(-n2c(SCC(=O)Nc3nnc(C)s3)nc3c([nH]c4ccccc43)c2=O)c1 | 10%
87 | CCC(C)[C@H](NC(=O)NCc1ccco1)C(=O)OC (some centres not stated) | 0%
88 | COc1ccc2c(c1)cc1c(=O)n(CC(=O)NCCCc3ccccc3)nc(C)n12 | -1%
89 | COc1ccc(-c2onc(C)c2C)cc1S(=O)(=O)N(C)Cc1ccco1 | 21%
90 | O=C(N/C=C/c1ccco1)Nc1cccc(Cl)c1 | -15%

no. | canonical_smiles | VDR inh
91 | CC(Sc1ccc(S(=O)(=O)N2CCCC2)cn1)C(N)=O (configuration not stated) | -15%
92 | Clc1ccc(N/N=C/c2cccnc2)cc1 | -13%
93 | N#C/C(=C\c1ccc(-c2ccc(F)cc2F)o1)c1nc2ccccc2[nH]1 | -4%
94 | O=C(O)CCCCCNS(=O)(=O)/C=C/c1ccccc1 | 2%
95 | COC(=O)CC(c1ccc(F)cc1)n1c(C)ccc1C (configuration not stated) | 12%
96 | CCC1(C)Cc2ccccc2-c2nc(NCCCO)[nH]c(=O)c21 (configuration not stated) | -10%
97 | CCCNC(=O)C(Cc1ccc(C(F)(F)F)cc1)NC(=O)c1ccc(C#N)cc1 (configuration not stated) | 0%
98 | COc1ccc(CCNC(=O)CSCc2c(F)cccc2Cl)cc1OC | 11%
99 | CCOC(=O)C(C)Oc1cccc2c(=O)n(CC(=O)N3CCN(C(=O)OCC)CC3)ccc12 (configuration not stated) | -18%
100 | CCN(CC)CC#CCOC(c1ccccc1)c1ccccc1 | -12%
101 | Cc1cc(NC(=O)CCC(=O)N(CC(=O)NC2CCCC2)Cc2cccs2)no1 | -5%
102 | O=C(C1CCN(S(=O)(=O)c2cc(Cl)ccc2Cl)CC1)N1CCOCC1 | 6%
103 | CCOC(=O)CN(Cc1cc(OC)cc(N(C)C)c1OC)C(=O)C1CC(CO[Si](C)(C)C(C)(C)C)=CN1C(=O)OC(C)(C)C (configuration not stated) | -11%
104 | CCOC(=O)C1(CCCc2ccccc2)CCN(Cc2nccn2CC)CC1 | -4%
105 | CCOC(=O)Cc1csc(NC(=O)CN2CCOCC2)n1 | 24%
106 | Cc1ccc(S(=O)(=O)N(C)C)cc1NC(=O)C(C)OC(=O)c1ccc2c(=O)n3c(nc2c1)CCC3 (configuration not stated) | -8%
107 | CC(C)c1ccc(N(CC(=O)NCc2ccco2)C(=O)CCC(=O)Nc2nccs2)cc1 | -14%
108 | CN1C(C(=O)NCC2CC2)CC2Cn3c(nc4cc(Cl)c(Cl)cc43)C21 (configuration not stated) | -2%
109 | Cc1nc(NC(=S)NC(=O)c2ccccc2)sc1C | 6%
110 | Cc1c(Nc2ccc3nonc3c2[N+](=O)[O-])c(=O)n(-c2ccccc2)n1C | 5%
111 | CCOc1ccc(CNC(=O)C(C)n2ncn3cccc3c2=O)cc1 (configuration not stated) | 17%
112 | CC(C(=O)NCCC1=CCCCC1)c1ccc([N+](=O)[O-])cc1 (configuration not stated) | -6%
113 | CC(NC(=O)COC(=O)/C=C/c1ccc2c(c1)OCO2)c1ccccc1 (configuration not stated) | -14%
114 | N[C@@]1(C(=O)O)CN[C@H](C(=O)O)C1 | 2%
115 | CCC(C(=O)Nc1ccc2[nH]ncc2c1)c1ccccc1 (configuration not stated) | -2%
116 | CN1CCN(c2cc(-c3ccoc3)ncn2)CC1 | ?
117 | CCN(CC(=O)Nc1ccccc1C(F)(F)F)C(=O)c1cc(S(=O)(=O)N2CCCCCC2)ccc1OC | -1%
118 | O=C(CC12CC3CC(CC(C3)C1)C2)NC1CC1 | -6%
119 | COc1ccc(-c2cc(C(=O)NC3CCCCC3)no2)cc1OC | -8%
120 | Cn1c(C(=O)OC(C(=O)NC2CCCC2)c2cccnc2)cc2sccc21 (configuration not stated) | 11%
121 | COCCNC(=O)CC(c1ccccc1)c1ccccc1 | 3%
122 | O=C(/C=C/c1c(F)cccc1Cl)N1CCOCC1 | -18%
